Screening data: PubChem, National Center for Advancing Translational Sciences (NCATS)
Fluorescein autfl – qHTS Assay for Spectroscopic Profiling in Fluorescein Spectral Region. Compound autofluorescence, 480/540 nm, fluorescein-equivalent; active compounds read high. actives 0.91% (n = 59,000). max fluorescein-equivalent concentration, M; in the data active means max fluorescein-equivalent concentration above about 10 nM; inconclusive means between about 1.1 nM and that limit
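Read-out is intrinsic compound fluorescence at 480/540 nm (excitation/emission), expressed as dye-equivalent concentration using a fluorescein standard series run on every plate. Compounds sat 15 min at room temperature in 100 mM Tris, pH 8.0.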
UbGFP stabilizer – Ubiquitin-GFP Assay; 67,000 tested, under 10 active; Potency, µM (doses to about 45.9 µM), for the others: at the highest dose activation (GFP accumulation), usual class: activators; Ubiquitin-GFP reporter cells, proteasome inhibition, GFP fluorescence; response scale: untreated = 0%, 10 µM MG-132 = 100%; AID 526, 2006; active means well fitted activation curve with a large enough effect, not every such curve was filed as active; inconclusive means small, poorly fitted or top-dose-only effect, or another doubt; inactive means no such curve, though single readings can be large or run the other way; further: potency means the concentration at half of the fitted maximal effect
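GFP accumulation read-out: laser plate cytometry counting ubiquitin(G76V)-GFP-expressing U2OS cells after 4 hr compound exposure at 37 °C. Titrations spanned 46 uM to 2.9 nM; 0% = basal, 100% = 10 uM MG-132; concentration-response curves fitted.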
USP2a inh – qHTS Assay for Inhibitors of Ubiquitin-specific Protease USP2a | Ubiquitin carboxyl-terminal hydrolase 2 (Homo sapiens), O75604 | USP2a enzymatic assay, qHTS inhibition | Potency, µM (highest dose often 38.3 µM), for the others: top-dose activity change, negative = inhibition, hits mostly inhibitors | actives 0.1% (n = 60,000);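 further: potency means the concentration at half of the fitted maximal effect; nearly all actives have a fitted effect of over 60% in size; plate controls were DMSO for no effect and NEM full inhibition control for full effect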
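Coupled readout: USP2-cleaved Ub-PLA2 (20nM final) turns over NBD C6-HPC (20uM final), Ex 460nm/Em 535nm after 2.5 h, time-zero read flagging artifacts. Enzyme (20nM final, pH 8.0 Tris) given 30 min RT with compound first; NEM defines full inhibition.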
BRCT inh green – qHTS Assay for Inhibitors of BRCT-Phosphoprotein Interaction (Green Fluorophore). Breast cancer type 1 susceptibility protein (Homo sapiens), P38398. BRCA1 BRCT-phosphopeptide binding, green fluorescence polarization. Potency, µM (doses to about 76.9 µM), for inactives: top-dose activity change, negative = inhibition, most hits filed as inhibitors. actives 0.05% (n = 75,000). AID 875, 2007;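 further: potency means the concentration at half of the fitted maximal effect; plate controls were peptide without protein for full effect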
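Compounds were incubated for 12 min at room temperature with a complex of 100 nM fluorescein-tagged pBACH1 decapeptide and 250 nM His-tagged BRCT protein. Buffer was phosphate pH 7.3 with EDTA, DTT and Tween 20. Disruption of binding lowers the polarization signal.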
Casp7 inh – qHTS Assay for Allosteric/Competitive Inhibitors of Caspase-7. P55210. actives 0.02% (n = 75,000). recombinant caspase-7, Ac-DEVD-AFC fluorescence rate. AID 889, 2007. Potency, µM (series often up to 57.5 µM), for inactives: at the highest dose activity change, negative = inhibition, usual class: inhibitors; active means well fitted inhibition curve with a large enough effect in the main read-out, with a control signal flat, not every such curve was filed as active; inconclusive means small, poorly fitted or top-dose-only effect, or a change in a side signal; further: potency means the concentration at half of the fitted maximal effect; % of control where 0% means no effect
Caspase-1 inhib – qHTS Assay for Allosteric/Competitive Inhibitors of Caspase-1; P29466; Caspase-1 enzyme, Ac-WEHD-AFC fluorogenic rate; Potency, µM (highest dose often 57.5 µM), for inactives: top-dose activity change, negative = inhibition, most hits filed as inhibitors; actives 0.03% (n = 75,000); AID 900, 2007;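 further: potency means the concentration at half of the fitted maximal effect; plate controls were vehicle for no effect and no substrate for full effect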
BRCT PPI red – qHTS Assay for Inhibitors of BRCT-Phosphoprotein Interaction (Red Fluorophore); Breast cancer type 1 susceptibility protein (Homo sapiens), P38398; BRCT-phosphopeptide binding, red fluorescence polarization; Potency, µM (series often up to 76.9 µM), without a hit: at the top dose activity change, negative = inhibition, actives largely listed as inhibitors; actives 0.03% (n = 75,000); AID 892, 2007; further: on the % scale 0 is the no-effect control and ±100 the full control effect
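Rhodamine-labelled pBACH1 10-mer (100 nM) bound to BRCT domain (100 nM) at pH 7.3; compounds incubated 12 min room temperature, polarization read. Free peptide defines full inhibition; unlabelled decapeptide titrated as control.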
Epigenetic mod – qHTS Assay for Epigenetic Modulators | mouse C127i GFP locus derepression, cytometry, 30 h | Potency, µM (top dose mostly 46.1 µM), for inactives: top-dose GFP derepression (activation) | actives 0.09% (n = 68,000) | AID 597, 2007; further: % of control where 0% means no effect
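Read-out is the number of GFP-positive cells, scored as fluorescent objects 20 to 120 um wide, reflecting derepression of a silenced CMV-GFP reporter in murine C127i cells after 30 h compound exposure at 37 C.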
Numbers without * were called inactive; i = inactive; ? = inconclusive; . = not tested or not shown; & = joins results of further samples; [ ] = another dose, or the depositor's remark. Unless noted, the call rests on the fitted dose curve; in most records, active means well fitted curve in the direction sought with a large enough effect; inconclusive means small, poorly fitted or top-dose-only effect, or another doubt; inactive means no such curve, though single readings can be large; an effect the other way counts as inactive or inconclusive. Only part of the results is shown. The share of hits here may be higher or lower than overall.

SMILES | Fluorescein autfl | UbGFP stabilizer | USP2a inh | BRCT inh green | Casp7 inh | Caspase-1 inhib | BRCT PPI red | Epigenetic mod
CCNc1ncc2ncc(=O)n(CCOC)c2n1 | ? | 3% | -23% | -2.6% | ? | ? | -4.1% | -4%[9.22 µM]
CC(C)(C)NC[C@H](O)COc1nsnc1N1CCOCC1 | ? | 4% | -1%[17.1 µM] | -0.9% | 1% | 3% | 0.2% | 0%[20.6 µM]
CC[C@H]1CN2CCc3cc(OC)c(OC)cc3[C@@H]2C[C@@H]1C[C@H]1NCCc2cc(OC)c(OC)cc21 | i | . | . | . | . | . | . | -2%[20.6 µM]
CO[C@@]1(NC(=O)CSCC#N)C(=O)N2C(C(=O)O)=C(CSc3nnnn3C)CS[C@@H]21 | i | . | . | . | . | . | . | 2%[20.6 µM]
COc1c(C)c2c(c(O)c1C/C=C(\C)CCC(=O)O)C(=O)OC2 | ? | -3% | 6% | -1.7% | -2% | 1% | 2.0% | 0%
O=C(c1ccco1)N1C(=O)c2cccc3c(S(=O)(=O)N4CCCC4)ccc1c23 | ? | 5% | 35%[activator] | -2.2% | 0% | 0% | 1.2% | -2%
COc1ccccc1NC(=O)c1oc2ccccc2c1NC(=O)c1ccco1 | i | 3% | 24% | -3.7% | 1% | -5% | -1.8% | 2%
CC1=C(C(=O)Nc2cc(C)ccn2)C(c2ccc(C)cc2)C2=C(CCCC2=O)N1 (stereo unspecified) | i | 5% | 24% | -4.2% | ? | ? | -0.9% | 1%
Cc1cccc(Nc2ccccc2C(=O)O)c1C | i | 5%[20.5 µM] | -19% | -1.4%[3.08 µM] | -17% | -2% | -2.4% | -3%&3%[20.6 µM]
CCOc1ccccc1-c1nc(C(N)=O)c2[nH]c(=O)n(-c3ccccc3)c2n1 | i | 9% | 30%[activator] | 0.1% | -1% | -1% | 0.8% | 4%
CC(C)c1nc(N2CCN(C(=O)c3ccco3)CC2)c2c3c(sc2n1)CCCC3 | ? | 1% | 53%[activator] | 2.0% | -16% | -6% | -0.1% | 0%
C1CCN2C[C@@H]3C[C@@H](CN4CCCC[C@H]34)[C@H]2C1 | ? | -2% | -6%[17.1 µM] | -1.1%[34.4 µM] | -1%[25.7 µM] | -2%[25.7 µM] | -0.4%[34.4 µM] | -2%[9.22 µM]
NC(N)=N/N=C\c1c(Cl)cccc1Cl | . | . | -10% | -2.4%[3.08 µM] | 0% | 1% | -1.3% | .
COC(=O)[C@@H]1[C@@H]2C[C@H]3c4[nH]c5cc(OC)ccc5c4CCN3C[C@@H]2C[C@H](OC(=O)c2cc(OC)c(OC)c(OC)c2)[C@H]1OC | ? | -9%[20.5 µM] | 82%[activator][17.1 µM] | 8.4%[34.4 µM] | -26%[25.7 µM] | -17%[25.7 µM] | -4.1%[34.4 µM] | -2%[20.6 µM]
C[C@@]12CCC(=O)C=C1CC[C@H]1[C@H]3CC[C@](O)(C(=O)CO)[C@]3(C)CC(=O)[C@@H]12 | ? | 3%[20.5 µM] | 1%[17.1 µM] | -1.0%[34.4 µM] | 0%[25.7 µM] | 2%[25.7 µM] | -1.5%[34.4 µM] | 7%[20.6 µM]
COC(=O)[C@@H]1C2CC3c4[nH]c5cc(OC)ccc5c4CCN3CC2C[C@H](OC(=O)c2cc(OC)c(OC)c(OC)c2)C1OC (stereo partly specified) | . | . | 34%[activator] | -0.4%[3.08 µM] | -29% | ? | 0.2% | .
C[C@@H](C(=O)O)c1ccc(-c2ccccc2)c(F)c1 | ? | -2% | -1% | -1.8% | 1% | -5% | -1.1% | 0%
CCn1c(Cc2ccccc2)nnc1SCC(=O)Nc1ccc(S(N)(=O)=O)cc1 | i | 17% | 9% | -0.9% | -1% | 1% | -1.1% | -5%
Cc1ccc(-n2c(=O)[nH]c3c(C(N)=O)nc(CC(C)C)nc32)cc1 | i | 3% | 16% | 1.0% | -2% | -3% | -1.7% | 0%
CC(=O)[C@]1(O)CCC2C3CC(C)C4=CC(=O)C=CC4(C)[C@@]3(F)C(O)C[C@]21C (stereo partly specified) | . | . | 3% | -2.1%[3.08 µM] | -2% | 2% | -2.7% | .
CN1C(=O)OC(C)(C)C1=O | ? | 5%[20.5 µM] | -6%[17.1 µM] | -2.2%[34.4 µM] | -1%[25.7 µM] | -5%[25.7 µM] | -2.0%[34.4 µM] | 0%[20.6 µM]
C[C@@H]1O[C@H](O[C@@H]2[C@H](C)O[C@H](O[C@@H]3[C@H](C)O[C@H](O[C@H]4CC[C@]5(C)[C@@H](CC[C@@H]6[C@H]5C[C@@H](O)[C@]5(C)[C@@H](C7=CC(=O)OC7)CC[C@]65O)C4)C[C@@H]3O)C[C@@H]2O)C[C@H](O)[C@@H]1O | ? | 1%[20.5 µM] | -1%[17.1 µM] | -1.3%[34.4 µM] | 1%[25.7 µM] | 1%[25.7 µM] | 0.8%[34.4 µM] | 0%[20.6 µM]
C[C@@H](CCc1ccccc1)NC[C@H](O)c1ccc(O)c(C(N)=O)c1 | ? | 0%[20.5 µM] | -13%[17.1 µM] | 0.1%[34.4 µM] | 0%[25.7 µM] | -1%[25.7 µM] | 0.3%[34.4 µM] | 2%[20.6 µM]
CCOc1cc(C)c(Cl)cc1S(=O)(=O)NCc1ccc2c(c1)OCO2 | i | 0% | 6% | -1.5% | -1% | -1% | 0.7% | 0%
N#Cc1nc(-c2cccc3ccccc23)oc1NCCN1CCOCC1 | i | 1% | 51%[activator] | 0.7% | -11% | -11% | -0.5% | 2%

(continued)
SMILES | Fluorescein autfl | UbGFP stabilizer | USP2a inh | BRCT inh green | Casp7 inh | Caspase-1 inhib | BRCT PPI red | Epigenetic mod
COC(=O)CCN(C(=O)C1C2CC3CC(C2)CC1C3)c1ccccn1 (stereo unspecified) | i | 3% | 0% | -0.5% | -1% | 0% | 0.1% | 26%
CCOc1cccc(C(=O)Nc2cccc(-c3nnc(-c4ccc(C)cc4)o3)c2)c1 | i | 4% | 3% | -1.1% | 0% | 1% | -0.2% | 0%
CCOC(=O)COc1ccc2c(c1)C(=O)CC(C)(C)O2 | i | 5% | 2% | -0.4% | -23% | ? | -0.7% | 2%
NC(=O)c1ncn([C@@H]2O[C@H](CO)[C@@H](O)[C@H]2O)n1 | . | . | 0% | -2.2% | 1% | -3% | -2.9% | .
CCN(CC)CC(=O)Nc1c(C)cccc1C | ? | 4%[20.5 µM] | -1% | -5.1%[3.08 µM] | 3% | 1% | 3.1% | 4%[20.6 µM]
CC(C)n1c(/C=C\[C@@H](O)C[C@@H](O)CC(=O)O)c(-c2ccc(F)cc2)c2ccccc21 | ? | 10%[20.5 µM] | -11%[17.1 µM] | -1.7%[34.4 µM] | -1%[25.7 µM] | -2%[25.7 µM] | -1.4%[34.4 µM] | 0%[20.6 µM]
O=C(Nc1nnc(-c2ccncc2)s1)C1CCCO1 (stereo unspecified) | i | -2% | -6% | 2.1% | -2% | -12% | -1.1% | 5%
C[C@H](C(=O)O)c1cccc(Oc2ccccc2)c1 | i | -3%[20.5 µM] | -6%[17.1 µM] | -1.3%[34.4 µM] | 1%[25.7 µM] | 0%[25.7 µM] | 0.2%[34.4 µM] | -1%[20.6 µM]
CC(C)(C)NC(=O)[C@@H]1CC[C@@H]2[C@@H]3CC[C@@H]4NC(=O)C=C[C@@]4(C)[C@H]3CC[C@]21C | ? | -2%[20.5 µM] | 11%[17.1 µM] | -0.4%[34.4 µM] | 2%[25.7 µM] | 0%[25.7 µM] | -0.8%[34.4 µM] | -2%[20.6 µM]
C[C@H]1[C@H](C)CC[C@]2(C(=O)O)CC[C@]3(C)C(=CCC4[C@@]5(C)CC[C@H](O)C(C)(C)[C@@H]5CC[C@]43C)[C@H]12 (stereo partly specified) | . | . | . | 0.1% | -3% | -2% | -0.3% | .
CC(C(=O)O)c1ccc(-c2ccccc2)c(F)c1 (stereo unspecified) | i | -6% | -8% | -2.3% | 0% | 0% | 0.2% | 2%
Cc1sc2ncn(CC(=O)NCCCC(=O)N3CCN(c4ncccn4)CC3)c(=O)c2c1C | i | -10% | 3% | 0.3% | 1% | -2% | 0.0% | -1%
CO[C@]1(NC(=O)CSCC#N)C(=O)N2C(C(=O)O)=C(CSc3nnnn3C)CS[C@H]21 | ? | -8%[20.5 µM] | -5%[17.1 µM] | -1.8%[34.4 µM] | -1%[25.7 µM] | 1%[25.7 µM] | 0.0%[34.4 µM] | 0%[20.6 µM]
c1ccc2[nH]c(NC3=NCCC3)nc2c1 | ? | 3% | 5% | -0.3% | -1% | 2% | 1.2% | ?
CC(C)(C)NC[C@@H](O)COc1nsnc1N1CCOCC1 | . | . | -12% | -0.3%[3.08 µM] | 0% | 0% | -0.6% | .
NC(=O)c1ncn([C@H]2O[C@@H](CO)[C@@H](O)[C@@H]2O)n1 | ? | 1%[20.5 µM] | -5%[17.1 µM] | -0.9%[34.4 µM] | -1%[25.7 µM] | -1%[25.7 µM] | -0.6%[34.4 µM] | -1%[20.6 µM]
CC(C)NCC(O)c1ccc(O)c(O)c1 (stereo unspecified) | . | . | -5% | -2.6%[3.08 µM] | -1%&-1% | 3%&-5% | 0.9%&0.3% | .

Whole records, quoted from the list:
COC(=O)CCN(C(=O)C1C2CC3CC(C2)CC1C3)c1ccccn1 (stereo unspecified) reads Fluorescein autfl = i; UbGFP stabilizer = 3%; USP2a inh = 0%; BRCT inh green = -0.5%; Casp7 inh = -1%; Caspase-1 inhib = 0%; BRCT PPI red = 0.1%; Epigenetic mod = 26%
CCN(CC)CC(=O)Nc1c(C)cccc1C reads Fluorescein autfl = ?; UbGFP stabilizer = 4%[20.5 µM]; USP2a inh = -1%; BRCT inh green = -5.1%[3.08 µM]; Casp7 inh = 3%; Caspase-1 inhib = 1%; BRCT PPI red = 3.1%; Epigenetic mod = 4%[20.6 µM]
